RGS16-Gao HTS = RGS16-Galphao interaction regulator (human); binding response (% of control), % at 10 µM; bead-based flow cytometry RGS16-Galphao binding, fluorescence; actives lie on both sides; 0.38% of 220,000 active; O15492+P09471;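 active = below 25% or above 175%, edge rows of some plates excepted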;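 also: Galphao activated by GDP with aluminum fluoride before binding; 100% = wells without compound and 0% = beads without RGS; some results beyond the cut were filed as inactive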
GALR2 agonist = GALR2 (human) receptor agonism. O43603. GALR2-expressing cells, agonist activation read-out. activation, %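 (tested at 5 µM)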. 0.48% of 140,000 active;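 active = above mean plus 3 SD of all compounds, about 5% in these data, not always enough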;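 also: 0% = vehicle buffer wells and 100% = reference agonist at full effect; tested in CHO reporter cells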
PKD1 kinase inh = blocks activity of human protein kinase D1; PKD1 kinase fluorescence polarization assay; inhibition, %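 (about 10 µM by stock and volumes)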; 0.056% of 200,000 active;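 active = inhibition of 50% or more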;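 also: controls were vehicle for no effect and a reference inhibitor for full effect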
Target sequence (Q15139 whole entry, looked up): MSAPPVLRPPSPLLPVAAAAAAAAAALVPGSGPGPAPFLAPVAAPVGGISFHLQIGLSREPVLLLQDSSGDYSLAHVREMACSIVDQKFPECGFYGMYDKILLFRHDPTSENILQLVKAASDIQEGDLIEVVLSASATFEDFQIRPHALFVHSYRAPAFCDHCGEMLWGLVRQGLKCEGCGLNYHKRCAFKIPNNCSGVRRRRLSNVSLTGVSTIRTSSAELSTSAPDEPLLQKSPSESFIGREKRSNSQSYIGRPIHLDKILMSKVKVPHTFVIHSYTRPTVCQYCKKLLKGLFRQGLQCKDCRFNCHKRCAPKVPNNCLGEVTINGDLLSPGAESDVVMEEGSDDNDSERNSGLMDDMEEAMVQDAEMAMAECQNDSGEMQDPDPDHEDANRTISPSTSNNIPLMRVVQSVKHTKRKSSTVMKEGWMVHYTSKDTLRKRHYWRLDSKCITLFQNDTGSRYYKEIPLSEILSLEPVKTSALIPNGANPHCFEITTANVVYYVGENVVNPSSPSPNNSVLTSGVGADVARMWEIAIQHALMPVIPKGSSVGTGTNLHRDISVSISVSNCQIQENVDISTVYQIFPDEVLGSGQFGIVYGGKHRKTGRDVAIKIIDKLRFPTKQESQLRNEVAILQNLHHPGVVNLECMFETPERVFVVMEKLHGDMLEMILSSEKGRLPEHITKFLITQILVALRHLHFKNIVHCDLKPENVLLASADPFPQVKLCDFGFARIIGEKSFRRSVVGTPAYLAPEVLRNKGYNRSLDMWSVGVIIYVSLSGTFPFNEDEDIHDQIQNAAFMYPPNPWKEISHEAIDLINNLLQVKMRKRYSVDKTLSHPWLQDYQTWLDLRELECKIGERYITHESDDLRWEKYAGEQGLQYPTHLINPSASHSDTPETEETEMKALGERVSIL
Insulin prom inh = TRM-6 insulin promoter activity inhibition. TRM-6 cells (human fetal islet line), insulin promoter-eGFP reporter, imaging; reporter expression induced with tamoxifen. inhibition, % at 2 µM. 0.9% of 130,000 active. AID 1273;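 active = inhibition above the mean plus 3 SD, with well images judged a real hit on visual review, cut at about 60% in these data, passing the limit was not always enough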
HSV replic up = HSV replication enhancement; maximum fold increase; HSV replication augmentation in cells, fold increase; 0.005% of 220,000 active; AID 1956;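 active = peak rise of 1.5-fold or more in the series; tested in PC3 cells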;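 also: first round at 10 µM; read as green reporter fluorescence; hits show the peak of a series up to 25 µM; 1 = signal of infected wells without compound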
Insulin prom inh cell count = also measured in Insulin prom inh; calls as there; normalized cell count, %; measured here: cell count, toxicity; reference of the scale not given here;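 cells exposed to compound for 48 h; stained nuclei by imaging scaled within each plate; lower means fewer cells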
HSV replic up primary fold = also measured in HSV replic up; calls as there; fold increase; compound at 10 µM; measured here: primary screen fold increase 10 uM; tested in PC3 cells;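 GFP signal in the first replicate; 1 = infected wells without compound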
* = called active by the depositor; i = inactive; / = not tested or not shown; & = joins results of further samples.

SMILES	RGS16-Gao HTS	GALR2 agonist	PKD1 kinase inh	Insulin prom inh	Insulin prom inh cell count	HSV replic up	HSV replic up primary fold
Cc1cc(=O)n2c3ccccc3n(CC(O)CN3CCC(C)CC3)c2c1C#N (centres undefined)	95	-1.2	5	35	72	i	0.97
CC(=O)NC1C(OCc2cccc(Br)c2)OC(COC(C)=O)C(OC(C)=O)C1OC(C)=O (centres undefined)	100	/	-2	/	/	i	0.98
N[C@@H](C(=O)N[C@@H]1C(=O)N2C(C(=O)O)=C(Cl)CS[C@H]12)c1ccccc1	103	-0.7	-9	-5	88	i	0.74
O=C(/C=C/c1ccco1)NCC1OCCc2ccccc21 (centres undefined)	95	/	/	/	/	i	0.96
CC(C)CCOc1ccc(C2=NNC(=O)CC2)cc1	107	-0.7	-9	-18	111	i	0.95
CC12CC3(C)CC(C)(C1)CC(NC(=O)N1CCCC1)(C2)C3	98	-2.3	-6	13	93	i	0.71
O=[N+]([O-])c1ccc(C2CC(c3ccccc3)=Nc3ccccc3S2)cc1 (centres undefined)	99	/	/	/	/	i	0.98
O=C(O)c1ccc(O)c(N2C(=O)Nc3ccccc3N2O)c1	91	-0.3	-10	22	98	i	1.1
C/C(=N\NC(=O)C1=NNC(=O)C1C)c1cccs1 (centres undefined)	115	/	-8	27	88	i	1.1
O=C1/C(=C/c2ccc([N+](=O)[O-])cc2)CCc2ccccc21	100	/	/	/	/	i	1
COc1cccc(NC(=O)CN2C(=O)C(c3ccc(C)cc3)=NC23CCCCCC3)c1	84	-0.8	-1	/	/	/	/
CCN(CC)c1ccc(NC(=O)c2cnc3ccccn3c2=O)c(C)c1	108	0.2	-8	/	/	i	0.94
Cc1cc(C)n(CCN(C)c2nc3nonc3nc2NC2CC2)n1	113	/	-1	14	65	i	0.61
OC(COc1ccc(Cl)c2ccccc12)CN1CCN(c2ccccn2)CC1 (centres undefined)	96	0.8	11	/	/	i	0.94
Cc1ccc(NC(=O)Nc2ccccc2C(N)=O)cc1	99	/	/	/	/	i	0.97
O=C(c1cccs1)N1CCC2(O)CCCCC2C1c1ccc(F)cc1 (centres undefined)	81	-0.9	-5	/	/	i	1.3
COCCN(CCOC)S(=O)(=O)c1ccc(C(=O)Nc2nc(-c3ccncc3)cs2)cc1	99	0.5	-9	/	/	i	0.89
N#Cc1nc(-c2ccc(OCc3ccccc3)cc2)oc1NCCCn1ccnc1	98	-1.8	9	-21	145	i	0.91
CCOc1cccc(OCCOCCN2CCCC2)c1	101	-0.3	-5	/	/	i	0.97
CCOC(=O)c1c(NC(=O)c2ccoc2C)sc(C)c1C	224	0.8	-9	25	172	i	0.98
COC(=O)C1CCN(C(=O)CSc2nnc(-c3ccncc3)o2)CC1	111	-1.8	-1	12	116	i	1.1
Cc1c(NC(=O)OCCSc2nc(N(C)C)nc(N(C)C)n2)sc(=S)n1C	98	0.8	-8	-64	84	i	0.87
COc1cc(OC)nc(NC(=S)NC(=O)c2ccccc2)n1	72	-0.7	-6	-22	72	i	0.9
NC(=O)c1ccccc1NC(=S)NC(=O)c1ccc(Br)o1	100	-0.3	-8	-113	99	i	0.92
Clc1ccc(CSc2nc3ccncc3[nH]2)cc1	105	-3.0	10	/	/	i	0.65
Cc1ccc(C(=O)N/N=C\c2ccc(-c3ccc(Cl)cc3)o2)cn1	105	/	/	/	/	i	0.83
O=C(N=Nc1c(O)n(Cc2ccccc2)c2ccccc12)c1ccc(O)cc1	41	1.8	-5	21	112	i	0.8
O=C(CCNc1ccc(Cl)c(C(F)(F)F)c1)c1ccco1	95	-1.7	4	26	94	i	0.9
Clc1ccccc1-c1nc2ccccc2[nH]1	131	/	/	/	/	i	0.95
CC(C)(C)C1(C)OC(C(N)=O)C(C(N)=O)O1 (centres undefined)	106	-1.5	0	/	/	i	1
CCN(CC)C(=O)C[n+]1cccc(C(N)=O)c1	95	-0.8	4	17	104	i	0.96
CC1CC2=C(NC(=S)NC2c2cccc(F)c2)/C(=C/c2cccc(F)c2)C1 (centres undefined)	90	/	-1	/	/	i	0.92
Cc1cc2n(n1)SC(Nc1ccc(F)cc1)N2 (centres undefined)	99	-2.3	-2	0	123	i	0.72
O=C(O)c1cc(Br)ccn1	99	/	6	/	/	i	0.89
COc1ccc(CCNS(=O)(=O)c2cc(/C=C/C(=O)O)ccc2C)cc1OC	100	/	-1	/	/	i	0.99
CN(C)c1nc(N)nc(-c2cccnc2)n1	103	-0.4	0	/	/	i	1
COc1ccc(CNC(=S)Nc2cccc(C)c2)cc1	89	-1.9	-4	10	98	i	0.9
O=C(CSc1ccc(/C=N/NC(=O)c2cccc(F)c2)o1)Nc1ccccc1	102	-4.1	-2	-40	57	i	0.8
O=C(Cc1cccs1)N1CCC(c2nc3c(nnn3Cc3ccccc3Cl)c(=O)[nH]2)CC1	105	-2.3	-12	-50	149	i	1.1
COc1ccccc1NC(=S)N(C(C)C)C(C)c1ccccn1 (centres undefined)	100	/	-4	0	110	i	1
CC(C)CC(=O)Nc1ccc(-c2nc3ccccc3c(=O)[nH]2)cc1	99	-0.9	4	-43	81	i	0.95
c1ccc(-c2ccc(C(c3ccccc3)n3ccnc3)cc2)cc1 (centres undefined)	112&101	-0.5	-12	-19	66	i	0.77
CCCCN(C(=O)c1ccc(S(=O)(=O)N(C)C)cc1)c1nc2ccccc2s1	61	-2.2	4	-170	33	i	1.1
O=C(NNc1ccccc1[N+](=O)[O-])Nc1ccccc1	98	-2.8	-6	9	135	i	1.1
CCOC(=O)NC(=O)CSc1ccccn1	98	-2.7	1	-36	147	i	0.82

2 records picked at random from the list so far, as already listed:
SMILES	RGS16-Gao HTS	GALR2 agonist	PKD1 kinase inh	Insulin prom inh	Insulin prom inh cell count	HSV replic up	HSV replic up primary fold
Cc1cc2n(n1)SC(Nc1ccc(F)cc1)N2 (centres undefined)	99	-2.3	-2	0	123	i	0.72
CCOC(=O)NC(=O)CSc1ccccn1	98	-2.7	1	-36	147	i	0.82

The results go on.
SMILES	RGS16-Gao HTS	GALR2 agonist	PKD1 kinase inh	Insulin prom inh	Insulin prom inh cell count	HSV replic up	HSV replic up primary fold
O=C(/C=C/c1ccco1)OCc1nnc(-c2ccc(Cl)cc2)o1	107	/	-6	36	53	i	1.1
O=C(CSCc1ccc(F)cc1)N1CCN(c2ccc(F)cc2)CC1	101	-2.0	3	-20	173	i	0.99
Cc1cc(NC(=O)CSc2nc(C(C)C)nc3sc4c(c23)CCCC4)no1	103	-1.4	-21	-7	64	i	1.1
Nc1ncnc2c1ncn2C1OC(CO)C(O)C1N (centres undefined)	99	/	/	/	/	i	1
CCc1nc2ccccc2n1Cc1ccc(OC)c(OC)c1	103	2.8	0	13	153	/	/
CC1CCN(CC(=O)Nc2ccc(Cl)cc2[N+](=O)[O-])CC1	105	/	10	-12	99	i	0.94
CCOc1nc(NCCc2ccc(OC)c(OC)c2)nc(NC(C)(C)CO)n1	103	-1.0	-5	-36	110	i	0.93
O=C(CSc1nnc(C2COc3ccccc3O2)o1)Nc1nccs1 (centres undefined)	103	-1.3	1	-43	158	i	1.1
COc1ccc(C)cc1NC(=O)CSc1nnc(-c2ccccn2)n1Cc1ccco1	95	-1.5	-11	-55	80	i	0.74
COCCN(C(=O)c1cc(OC)c(OC)c(OC)c1)c1c(N)n(Cc2ccccc2)c(=O)[nH]c1=O	108	/	-7	/	/	i	1
COc1cccc(NC(=O)c2ocnc2C)c1	95	-0.6	0	0	108	i	0.87
O=C(CCc1nc2ccccc2[nH]1)Nc1ccc(F)cc1	101	0.5	-7	14	77	i	0.97
CCCC(=O)Nc1cc(OC)c(C(=O)OC)cc1Cl	99	/	0	/	/	i	0.94
Cc1ccc2nsnc2c1S(=O)(=O)N1CCN(C(=O)C2CCCO2)CC1 (centres undefined)	98	-1.9	6	22	107	i	0.96
CC(C)C(=O)NCCc1nc2ccccc2n1CCc1ccccc1	97	/	-3	/	/	i	1.1
COc1ccc(OC)c2[nH]c(=O)c(CCNC(=O)C(C)C)cc12	111	-3.4	3	/	/	i	0.92
Cc1c(NC=C(C#N)C#N)c(=O)n(-c2ccccc2)n1C	103	/	15	-41	89	i	1.1
Cc1nn2c(-c3cccnc3)ccnc2c1-c1ccccc1	108	-0.1	-12	21	67	i	0.97
O=C(O)CSCC(=O)Nc1cc(C(F)(F)F)ccc1Cl	100	-0.8	-2	-80	133	i	0.53
COC(=O)c1nn(-c2ccc(C)cc2)ccc1=O	104	/	-30	/	/	i	0.87
CC1(C)CC(=O)C2=C(C1)OC(N)=C(C#N)C2c1ccccc1OC(=O)N1CCOCC1 (centres undefined)	99	-1.1	-9	/	/	i	0.98
CCOC(=O)CSc1nc2ccc(NC(=O)CSc3nnnn3Cc3ccccc3)cc2s1	46	-2.5	-4	11	75	i	0.93
Cc1ccc(C(O)c2nccn2C)o1 (centres undefined)	133	-1.2	-5	-33	108	/	/
C/C(CC(=O)NCCCN1CCOCC1)=N\NC(=O)COc1ccc(Cl)cc1	99	-1.1	6	4	92	i	1
CCn1c(SCC(=O)NNC(=O)c2ccc(OC)cc2)nnc1-c1cccnc1	103	/	-3	/	/	i	0.86
COc1cccc(NC(=O)N2CCN(c3cccc(C)c3C)CC2)c1	107	-2.5	-11	-84	92	i	0.89
Cc1ccc2nc(NC(=O)C3CC(=O)N(Cc4ccco4)C3)sc2c1 (centres undefined)	102	/	-2	/	/	i	1.1
CS(=O)(=O)c1ccc2nc(NC(=O)c3cccc(NS(=O)(=O)c4ccc(F)c(F)c4)c3)sc2c1	98	0.5	4	/	/	i	0.98
CCC(CC)C(=O)Nc1cc([N+](=O)[O-])ccc1Cl	100	-1.1	-7	-8	78	i	1
O=C(NNS(=O)(=O)c1ccccc1)c1csc(-c2cccnc2)n1	97	/	/	/	/	i	0.96
Cc1ccc(-n2c(-c3cn(C)nc3C)n[nH]c2=S)cc1	93	/	0	-7	75	i	1.1
COCCNC(=O)C(c1ccc(F)cc1)N(C(=O)CCC(=O)Nc1nccs1)c1cccc(C)c1 (centres undefined)	103	/	1	-27	122	i	0.89
Cc1occc1-c1nnc(SCC(=O)N2CCN(c3ccccc3)CC2)n1C	97	-0.7	-14	/	/	i	1
Cc1cccc(NC(=O)CN(C)S(=O)(=O)c2ccc(Br)cc2)n1	99	-2.4	-7	8	77	i	1
C=CCn1c(=O)c2ccccc2n2c(SCC(=O)NCCc3ccccc3)nnc12	99	-0.5	14	/	/	i	1.1
CCOC(=O)c1cc(NC(=O)N(CC)C2CCCCC2)c(C)nc1C	123	-2.2	-7	-32	138	i	1.1
Cc1ccc(C(=O)NCCCCNC(=O)c2ccc(C)o2)o1	103	-1.0	-11	-8	79	i	0.93

Molecules shown so far that contain a furan ring, fused or not:
SMILES	RGS16-Gao HTS	GALR2 agonist	PKD1 kinase inh	Insulin prom inh	Insulin prom inh cell count	HSV replic up	HSV replic up primary fold
O=C(/C=C/c1ccco1)NCC1OCCc2ccccc21 (centres undefined)	95	/	/	/	/	i	0.96
CCOC(=O)c1c(NC(=O)c2ccoc2C)sc(C)c1C	224	0.8	-9	25	172	i	0.98
NC(=O)c1ccccc1NC(=S)NC(=O)c1ccc(Br)o1	100	-0.3	-8	-113	99	i	0.92
Cc1ccc(C(=O)N/N=C\c2ccc(-c3ccc(Cl)cc3)o2)cn1	105	/	/	/	/	i	0.83
O=C(CCNc1ccc(Cl)c(C(F)(F)F)c1)c1ccco1	95	-1.7	4	26	94	i	0.9
O=C(CSc1ccc(/C=N/NC(=O)c2cccc(F)c2)o1)Nc1ccccc1	102	-4.1	-2	-40	57	i	0.8
O=C(/C=C/c1ccco1)OCc1nnc(-c2ccc(Cl)cc2)o1	107	/	-6	36	53	i	1.1
COc1ccc(C)cc1NC(=O)CSc1nnc(-c2ccccn2)n1Cc1ccco1	95	-1.5	-11	-55	80	i	0.74
Cc1ccc(C(O)c2nccn2C)o1 (centres undefined)	133	-1.2	-5	-33	108	/	/
Cc1ccc2nc(NC(=O)C3CC(=O)N(Cc4ccco4)C3)sc2c1 (centres undefined)	102	/	-2	/	/	i	1.1
Cc1occc1-c1nnc(SCC(=O)N2CCN(c3ccccc3)CC2)n1C	97	-0.7	-14	/	/	i	1
Cc1ccc(C(=O)NCCCCNC(=O)c2ccc(C)o2)o1	103	-1.0	-11	-8	79	i	0.93
